miR-21 reporter = raises the signal of a miR-21 reporter | 340,000 tested, under 10 active | HeLa miR-21 FLuc reporter, luciferase, 48 h | Potency, µM (top dose mostly 38.3 µM), inactives show top-dose reporter change, positive = more light; active = well fitted rising curve with a large enough effect; inconclusive = small, poorly fitted or top-dose-only effect; inactive = no such curve, though single readings can be large or run the other way;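 further: % of control where 0% means no effect; miR-21 action dims this reporter so a rising signal means less miR-21 action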
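HeLa miR-21-FLuc reporter line, endogenous miR-21; 2000 cells/well in DMEM/10% FBS; compound titration up to ~40uM final, 48 h, 37 degree Celsius; luciferase detection reagent, 15 min lysis, CCD luminescence.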
* = called active by the depositor; ? = inconclusive. This is a subset (hit frequency here may not be typical).

Structure	miR-21 reporter
COC(=O)c1ccc(NC(=O)C(=O)NCC(c2cccnc2)N2CCN(c3ccccc3)CC2)cc1 (stereo not drawn)	2%
Cc1ccc(-c2cc3c(n2-c2ccccc2F)CC(C)(C)CC3=O)cc1	-3%
COc1ccc(CCNc2nc(-c3ccc(C)cc3)cc(C(F)F)n2)cc1OC	3%
Cc1c(C(=O)Nc2ccccc2Cl)oc2ccc(S(=O)(=O)N3CCCCC3)cc12	-1%
COc1cc(C2C(=O)N(C3CCC(C)CC3)CC(=O)N2CCc2ccc(Cl)cc2)ccc1OC(C)C (stereo not drawn)	-3%
COC(=O)CSc1nnc(-c2cccc(O)c2)o1	0%
CC(C)CCNC(=O)c1nn(C)c2c1CSc1ccccc1-2	2%
CC(=O)N1CCc2c(sc3c2c(=O)n(-c2ccccc2)c(=O)n3CC(=O)c2ccccc2)C1	1%
COc1cc(Cl)c(NC(=O)CCS(=O)(=O)c2cc3c(cc2Cl)NC(=O)CO3)c(OC)c1	9%
COc1ccccc1C(=O)Nc1ccccc1C(=O)OCc1cc(=O)n2ccsc2n1	-3%
CCc1ccccc1NC(=O)Cn1c(=O)c2cccn2c2ccc(F)cc21	0%
Cc1nc2nc[nH]n2c(=O)c1CCC(=O)Nc1ccc(F)cc1	4%

New compounds follow:
Structure	miR-21 reporter
CSc1ncc(C(=O)NCc2ccc(F)cc2)c(-c2ccccc2)n1	0%
COc1ccc(N2CCN(CC(O)COc3ccc(C(C)(C)C)cc3)CC2)cc1 (stereo not drawn)	3%
Cc1ccccc1C(=O)n1nc(-c2ccco2)nc1NCc1ccc(Cl)cc1	-11%
CCc1ccc(CNC(=O)c2ccc3nc(C(C)C)oc3c2)cc1	-14%
CCc1ccc(NC(=O)C(=O)NCC(c2cccnc2)N2CCN(C)CC2)cc1 (stereo not drawn)	2%
COc1ccccc1-c1nn2c(=O)cc(CN3CCN(C(=O)/C=C/c4ccccc4)CC3)nc2s1	4%
COc1ccc(CNC(=O)c2cc3c(s2)-c2c(C)cccc2OC3)cc1	-14%
COc1ccccc1CNC(=O)c1ccc2c(c1)N(Cc1ccc(C)cc1)CCS2	0%
COc1cccc(CNC(=O)C2(c3cccs3)CCOCC2)c1	-1%
O=C(CSc1nnc(CNC(=O)c2c(F)cccc2Cl)o1)Nc1ccccc1F	-2%
Cc1ccc(-n2nc3c(N4CCC(C(=O)NC5CCC(C)CC5)CC4)nnc(C)c3c2C)cc1 (stereo not drawn)	-4%
COCCCNC(=O)CCCn1c(=O)c2ccccc2n(CC(=O)Nc2ccc(C)cc2Cl)c1=O	4%

More structures follow:
Structure	miR-21 reporter
Cc1cccc(C(=O)Nc2ccccc2OCc2cc(=O)n3c(C)csc3n2)c1	2%
COc1ccc(CNC(=O)c2ccc(-c3nc(CSc4ccccc4)c(C)o3)cc2)cc1	-2%
Cc1cccc(C(=O)Nc2nnc(S(=O)(=O)N(C)Cc3ccc(Cl)cc3)s2)c1	4%
Cc1ccc(Cl)cc1-n1ncc2c(N3CCCCCC3)ncnc21	26%
CCOC(=O)COc1ccc(C)cc1C(=O)c1ccn2nc(-c3ccc(Cl)cc3)cc2n1	-3%
O=C(Nc1cccc(Cl)c1)c1cc(-c2ccccc2)on1	-6%
COc1ccc(-c2nnc(SCC(=O)Nc3cccc(F)c3)s2)cc1	-61%
O=C(Nc1nnc2n1CCS2)c1ccc(F)cc1F	-20%
Cc1ccc(N2CCN(C(=O)Cc3c(C(=O)O)c(C)cn3C)CC2)c(C)c1	2%
Cc1nc2c(c(C)nn2-c2ccccc2)c(C)c1CCC(=O)NCCc1ccccc1	-17%
Cc1ccc(-n2c(=O)c3c4c(sc3n(CC(=O)c3ccc(Cl)cc3)c2=O)CCC4)cc1C	4%
COc1ccc(-c2noc(-c3ccc(N4CCCC4)c([N+](=O)[O-])c3)n2)cc1	18%

3 compounds out of the list, ordered by SMILES length, rising.
Structure	miR-21 reporter
O=C(Nc1cccc(Cl)c1)c1cc(-c2ccccc2)on1	-6%
Cc1cccc(C(=O)Nc2nnc(S(=O)(=O)N(C)Cc3ccc(Cl)cc3)s2)c1	4%
Cc1ccc(-n2c(=O)c3c4c(sc3n(CC(=O)c3ccc(Cl)cc3)c2=O)CCC4)cc1C	4%

Remaining list, next part
Structure	miR-21 reporter
CC1=C(C(=O)Nc2ccccc2)C(c2ccc[nH]2)n2ncnc2N1 (stereo not drawn)	-1%
CC(NC(=O)c1ccc2c(c1)N(Cc1ccc(Cl)cc1)C(=O)c1ccccc1S2=O)c1ccccc1 (stereo not drawn)	2%
CS(=O)(=O)N(CC(=O)NCCSc1ccccc1)c1cc(C(F)(F)F)ccc1Cl	1%
Cc1ccc2oc3c(c(=O)c2c1)C(c1ccccc1F)N(c1ccccn1)C3=O (stereo not drawn)	-2%
CCN1CCOC(=O)C1CC(=O)Nc1cccc(OC)c1 (stereo not drawn)	-31%
Cc1ccc(N2C(=O)CSC23C(=O)N(CC(=O)NCc2ccccc2)c2ccccc23)cc1C (stereo not drawn)	-8%
CCCC12CN3CC(CCC)(CN(C1)C3c1c[nH]c3ccc(OC)cc13)C2=O (stereo not drawn)	5%
Cc1nn(-c2ccccc2)c(OC(=O)C(C)C)c1Sc1ccccc1	1%
COc1ccc2c(CNCc3cccs3)c(C(=O)O)n(Cc3ccc(F)cc3)c2c1	11%
COc1cccc(NC(=O)c2nnn(Cc3ccc(OC)c(Br)c3)c2N)c1	3%
Cc1ccc(NC(=O)CN2CCSc3ccc(S(=O)(=O)N4CCCC4)cc32)cc1	15%
O=C(Nc1ccc2c(c1)CCCN2C(=O)c1cccs1)c1cccc(C(F)(F)F)c1	29%

Reprinted from the part before: seven entries, followed by the next part.
Structure	miR-21 reporter
Cc1ccc(N2C(=O)CSC23C(=O)N(CC(=O)NCc2ccccc2)c2ccccc23)cc1C (stereo not drawn)	-8%
CCCC12CN3CC(CCC)(CN(C1)C3c1c[nH]c3ccc(OC)cc13)C2=O (stereo not drawn)	5%
Cc1nn(-c2ccccc2)c(OC(=O)C(C)C)c1Sc1ccccc1	1%
COc1ccc2c(CNCc3cccs3)c(C(=O)O)n(Cc3ccc(F)cc3)c2c1	11%
COc1cccc(NC(=O)c2nnn(Cc3ccc(OC)c(Br)c3)c2N)c1	3%
Cc1ccc(NC(=O)CN2CCSc3ccc(S(=O)(=O)N4CCCC4)cc32)cc1	15%
O=C(Nc1ccc2c(c1)CCCN2C(=O)c1cccs1)c1cccc(C(F)(F)F)c1	29%
Cc1ccc(CNC(=O)C2CCCN(S(=O)(=O)c3cn(C)cn3)C2)cc1 (stereo not drawn)	-1%
O=C(NCc1ccc(F)cc1)c1ccc(NC(=O)N2CC3CCCN3c3ccccc32)cc1 (stereo not drawn)	2%
O=C(CN1C(=O)CC(c2ccc(F)cc2)=Nc2ccccc21)NCc1ccccc1Cl	1%
CCCCn1cc2c(c1-c1ccc(Br)cc1)c(=O)n(C)c(=O)n2C	23%
CCOc1ccccc1C(=O)N(Cc1cccs1)c1ccc(Cl)cc1	17%
CCOc1ccccc1Nc1nc(-c2ccc(C)cc2)c(CC(=O)O)s1	-5%
CN1CCc2c(sc3c2C(=O)NC(c2ccc(OC(=O)c4ccc(Cl)cc4)cc2)N3)C1 (stereo not drawn)	-26%
COc1ccc(-n2c(Cc3ccccc3)nnc2SCc2nc(-c3cccs3)no2)cc1	4%
CCN(c1cccc(C)c1)S(=O)(=O)c1c(C)nc2sc(C)cn2c1=O	6%
COc1cccc(CNC(=O)Cn2cc3c(n2)-c2c(oc(C(=O)N4CCOCC4)c2C)CC3)c1	0%
COc1ccc(-c2nc3scc(CCNS(=O)(=O)c4cc(F)ccc4OC)n3n2)cc1OC	-38%
CCCCCCC1CCC(C(=O)NC(C(=O)O)C(C)C)CC1 (stereo not drawn)	6%

(listing goes on)
Structure	miR-21 reporter
CC1=C(C(=O)Nc2cccc(C(F)(F)F)c2)C2(CCCCCC2)OC1=O	-6%
CCOc1ccc(-c2cn3nc(CC(C)C)sc3n2)cc1	-73%
CCC(=O)Nc1ccc(S(=O)(=O)NCc2cccn2Cc2cccc(C)c2)cc1	10%
CCN(C(=O)Cn1nc(Cc2cccnc2)c2ccccc2c1=O)c1cc(C)ccc1C	-10%
Cc1[nH]c2ccccc2c1C1(O)C(=O)N(Cc2ccc(Cl)cc2)c2ccccc21 (stereo not drawn)	4%
CCN(CC)S(=O)(=O)c1ccc2c(c1)c(=O)c(C(=O)N1CCN(c3cc(C)ccc3C)CC1)cn2C	6%
Cc1cccn2c(=O)c(C(=O)NCc3ccc(F)cc3)c(O)nc12	-4%
CCN(CCCNC(=O)CSc1cc(=O)n(C)c2ccccc12)c1ccccc1	-3%
CCOc1ccc(Sc2cc(C(=O)NC(C)CC)c3ccccc3n2)cc1 (stereo not drawn)	-1%
CC(C)CCNC(=O)c1ccc(Cn2c(SCC(N)=O)nc3ccccc3c2=O)cc1	-6%
Cc1cccc(CNC(=O)c2cnc3c(-c4cccc(C)c4)c(C)nn3c2C)c1	-5%
COC(=O)c1ccc(NC(=O)CN(Cc2ccccc2)S(=O)(=O)c2ccc(Cl)cc2)cc1	28%

Remaining list, next part:
Structure	miR-21 reporter
Cc1cccc(N2CCN(C(=O)CN3C(=O)COc4ccc(S(=O)(=O)N5CCCC5)cc43)CC2C)c1 (stereo not drawn)	4%
CCC(=O)Nc1ccc(C)cc1-c1nc2ccccc2n(CC(=O)Nc2ccccc2Cl)c1=O	1%
COc1ccc(Nc2ncnc3onc(C)c23)c(OC)c1	0%
O=C(Nc1ccc2oc(-c3ccccc3F)nc2c1)c1ccccc1Cl	-16%
CCNc1nc(OC)nc(Oc2ccc(=O)[nH]n2)n1	-8%
Cc1c(CNC2CCC(C)CC2)c(C(=O)O)c(C)n1Cc1ccccc1F (stereo not drawn)	-1%
COC(=O)c1sc2cccc(F)c2c1S(=O)(=O)N1CCN(c2cccc(C)c2)C(C)C1 (stereo not drawn)	5%
CCOc1ccc(C(=O)Nc2c(C(=O)N3CCN(c4ccccc4F)CC3)oc3ccccc23)cc1	-12%
CCC(=O)N1CCc2cc(CNC(=O)Nc3cc(C)ccc3C)ccc21	-8%
CCOC(=O)C1CCN(S(=O)(=O)c2cc(-c3onc(C)c3C)ccc2C)CC1	2%
CN(C)c1ccc(CNC(=O)C2CCCN(S(=O)(=O)c3ccc4c(ccn4C)c3)C2)cc1 (stereo not drawn)	27%
Cc1ccccc1OCc1ccc(-c2nc(C#N)c(NCCCN(C)C)o2)o1	-12%

Other entries
Structure	miR-21 reporter
O=C(CSc1nnc(NC(=O)Nc2ccccc2)s1)Nc1cccc(F)c1	-23%
COc1ccccc1CCNC(=O)C(=O)NCC(c1cccs1)S(=O)(=O)c1ccccc1 (stereo not drawn)	13%
CCCCCOC(=O)c1ccc(OC(=O)c2sc3ncn(Cc4cccc(F)c4)c(=O)c3c2C)cc1	-1%
CCc1ccccc1NC(=O)c1ccc2nc(C(C)C)oc2c1	-3%
CC1CCN(C(=O)CSc2c3c(nc4ccc(Cl)cc24)CCCC3)CC1	?
CCSc1ncc(Cl)c(C(=O)Nc2nc3ccc(S(C)(=O)=O)cc3s2)n1	1%
Cc1ccc(NC(=O)CN2C(=O)c3ccccc3Sc3ccc(C(=O)N4CCOCC4)cc32)cc1F	3%
CCOC(=O)c1c(NC(=O)c2cc(=O)c3cc(C)cc(C)c3o2)sc(C)c1C	2%
CCN(CC)c1nc2c(S(=O)(=O)c3ccccc3)nnn2c2ccc(Cl)cc12	0%
CCc1cccc(C)c1NC(=O)Cn1c(=O)cc(C(F)(F)F)c2c(C)nn(C)c21	-1%
O=C(NCc1ccccn1)c1nn(-c2ccccc2Cl)nc1CO	9%
CCCc1nn2c(=O)cc(COc3ccc(/C=C(\C#N)C(=O)Nc4ccc(F)cc4)cc3)nc2s1	0%

(listing goes on)
Structure	miR-21 reporter
COc1ccc(C)cc1NC(=O)C(=O)NCCc1sc(-c2cccc(C)c2)nc1C	-6%
Cc1cccc(Cn2cc(C(=O)Nc3ccc(F)c(C(F)(F)F)c3)ccc2=O)c1	?
COc1ccc(CC(=O)N2CC(=O)Nc3ccc(Br)cc3C2c2ccc(F)cc2)cc1 (stereo not drawn)	23%
Cc1ccc(C)c(N2CCN(C(=O)c3cc(C)nc4c3c(C)nn4-c3cccc(F)c3)CC2)c1	-7%
Cc1ccccc1-c1nc2scc(CCNC(=O)c3ccco3)n2n1	3%
COc1cccc(CNC(=O)c2ccc3nc(CCc4ccccc4)oc3c2)c1OC	-17%
COc1ccc(-c2c(C)nn3c(-c4ccccc4)cc(-c4ccccc4)nc23)cc1	-3%
COc1ccc(Cn2c(CNC(=O)Cc3ccc(OC)c(OC)c3)nc3cccnc32)cc1	-5%
COc1ccc2c(c1)c1c(c(=O)n(-c3ccccc3)c(=O)n1CC(=O)Nc1ccc(C)c(C)c1)n2C	0%
CSc1ccc(CNC(=O)C2CCN(c3nc4ccccc4nc3C(F)(F)F)CC2)cc1	-1%
COc1ccc(-c2cn3nc(N4CCC(C(=O)Nc5cccc(C)c5C)CC4)sc3n2)cc1	-12%
Cc1ccc(Cn2c(C)c3cnn(CC(=O)N4CCN(c5ccc(F)cc5)CC4)c(=O)c3c2C)cc1	5%

(more compounds)
Structure	miR-21 reporter
O=C(CSc1nc2ccccc2n1Cc1cccc(F)c1)NCc1ccccc1	15%
CCOc1ccc(N(C)S(=O)(=O)c2c(C(=O)N3CCC(C)CC3)c(C)n(C)c2C)cc1	0%
COc1ccc(C)cc1NC(=O)CCS(=O)(=O)c1ccc2c(c1)CC(=O)N2C	-1%
CCOc1ccc(-c2nc3c(c(SCC(=O)N4CCCCC4)n2)Cc2cccc(OC)c2O3)cc1	3%
Cn1c(=O)n(C)c2cc(N3CCOCC3)c(NS(=O)(=O)c3ccc(C(C)(C)C)cc3)cc21	-2%
COc1ccc(C)cc1NC(=O)c1sc2nc(-c3ccc(F)cc3)cn2c1C	-3%

Screening data from PubChem BioAssay.
